HNF4A DNA FP: change in binding of human HNF4 alpha to DNA | 360,000 tested, 0.3% active | HNF4a-FITC DNA binding, fluorescence polarization, 1 h | P41235 | AID 1224865 | activity change, % at 10 µM; in the data active means activity change above about 30%, passing the limit was not always enough;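 further: controls were the assay level and a saturating level of protein; the project sought stronger binding though the title names inhibitors; some compounds called inactive have numbers as strong as hits; positive values seem to mean higher polarization but the record does not say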
Target sequence (P41235 whole entry, looked up): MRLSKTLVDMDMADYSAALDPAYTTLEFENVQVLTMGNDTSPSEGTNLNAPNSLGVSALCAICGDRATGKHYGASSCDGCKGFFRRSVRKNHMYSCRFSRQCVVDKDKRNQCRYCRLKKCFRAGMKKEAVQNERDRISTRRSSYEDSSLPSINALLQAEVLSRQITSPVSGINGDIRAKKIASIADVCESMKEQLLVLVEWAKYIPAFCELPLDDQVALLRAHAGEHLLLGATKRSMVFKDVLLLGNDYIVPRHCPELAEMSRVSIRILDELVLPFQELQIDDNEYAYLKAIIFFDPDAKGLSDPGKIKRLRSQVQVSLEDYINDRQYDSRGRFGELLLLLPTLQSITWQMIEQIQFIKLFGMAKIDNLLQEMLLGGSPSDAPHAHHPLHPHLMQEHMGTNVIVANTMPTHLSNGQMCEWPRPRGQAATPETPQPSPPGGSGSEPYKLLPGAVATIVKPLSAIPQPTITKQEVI
B2AR ag: agonists of human beta-2 adrenergic receptor inducing internalization. Am2.2-beta2AR cells, FAP receptor internalization, flow cytometry; reference of the scale not given here. response, % (no concentration beside the values). 340,000 tested, 0.43% active. AID 504454;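 active means response above a set limit, near 3 SD of response in nonfluorescent compounds, cut at about 42% in these data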;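 further: stock transfer was 100 nL into about 11 µL; a reference agonist was the positive control; negative values mostly stem from fluorescent compounds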
Target sequence (P07550 whole entry, looked up): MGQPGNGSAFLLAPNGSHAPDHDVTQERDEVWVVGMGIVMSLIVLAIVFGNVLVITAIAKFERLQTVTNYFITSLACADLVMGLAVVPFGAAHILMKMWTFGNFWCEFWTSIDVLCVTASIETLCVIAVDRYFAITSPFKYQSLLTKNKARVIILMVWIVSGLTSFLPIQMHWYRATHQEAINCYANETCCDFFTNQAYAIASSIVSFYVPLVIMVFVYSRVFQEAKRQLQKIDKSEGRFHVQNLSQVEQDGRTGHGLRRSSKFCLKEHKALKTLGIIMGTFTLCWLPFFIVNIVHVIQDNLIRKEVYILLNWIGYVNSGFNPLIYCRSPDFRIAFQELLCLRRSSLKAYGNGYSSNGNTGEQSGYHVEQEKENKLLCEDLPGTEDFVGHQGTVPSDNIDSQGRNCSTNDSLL
Calb FLC: affects C. albicans growth with fluconazole | growth inhibition, % (test concentration not listed) | C. albicans CaCi-2 (fluconazole-resistant clinical isolate) + fluconazole, Alamar Blue growth, 48 h | 300,000 tested, 0.57% active;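 active means most replicates above 75%; inconclusive means exactly half above 75%; inactive means most below 75%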;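 further: all wells also contain fluconazole at 8 µg/ml as a sub-toxic cotreatment; 0% = median of DMSO wells and 100% = median of geldanamycin control wells; wells of about 8 µL received 7.5 nL stock; the first replicate is given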
LANA-H2A inh: blocks KSHV LANA binding to histone H2A/H2B. cell-free LANA-H2A/H2B peptide, fluorescence polarization. inhibition, % (concentration not given with the values). 320,000 tested, 0.6% active. AID 2629; in the data active means inhibition mostly above about 10%, no sharp cut-off; inactive means mostly below about 6.7%;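 further: stock transfer was 7.5 nL into about 10 µL; 0% = median of vehicle wells and 100% = median of positive control wells; one replicate is shown; the record names a cut of 25% in any replicate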
RanGTP-Impb inh: inhibitors of RanGTP-importin-beta interaction, primary screen, biochemical, FRET, CFP-Ran, YFP-importin-beta, homogeneous | cell-free CFP-Ran/YFP-importin-beta FRET ratio | inhibition, % (no concentration beside the values) | 300,000 tested, 1.1% active | AID 2216;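 active means most replicates above 15%; inconclusive means exactly half above 15%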;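 further: 0% = DMSO wells and 100% = Ran loaded with GDP instead of GTP; wells of about 40 µL received 100 nL stock; the first replicate is given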
Vif TR-FRET: HIV-1 Vif–A3G interaction blockers – biochemical, TR-FRET, GST-Vif 1-94, biotin-A3G peptide, dose response retest, primary screen (AID 1117319); 260,000 tested, 0.57% active; TR-FRET GST-Vif / biotin-A3G peptide binding; higher % means a stronger effect; test concentration not given here; strong numbers were not always called active; inhibition, %, or IC50 in µM where a hit was titrated;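 active means above the screen mean plus three standard deviations and confirmed in dose response; inconclusive means results disagree or hit not tested in dose response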;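 further: Vif residues 1-94 fused to GST binding biotinylated APOBEC3G peptide 110-148; 0% = full assay without inhibitor and 100% = GST in place of GST-Vif; retest series ran down from 100 µM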
ALR H2O2 inh: human ALR oxidase inhibition via reduced H2O2; P55789; purified ALR, DTT oxidation, H2O2 HRP-luminol luminescence; inhibition, % (no concentration beside the values); 290,000 tested, 3.8% active;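 active means mean and each replicate at 75% or more; inconclusive means only one of the two met; inactive means neither met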;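 further: stock transfer was 7.5 nL into about 7.5 µL; 0% = neutral wells and 100% = wells with inactivated enzyme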
Target sequence (P55789 whole entry, looked up): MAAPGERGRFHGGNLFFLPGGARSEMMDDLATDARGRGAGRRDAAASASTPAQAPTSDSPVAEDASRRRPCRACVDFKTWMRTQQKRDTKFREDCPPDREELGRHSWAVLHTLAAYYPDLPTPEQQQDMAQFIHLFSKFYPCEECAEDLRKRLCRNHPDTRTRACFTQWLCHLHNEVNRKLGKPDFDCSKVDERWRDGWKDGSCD
* marks the source's active call; other numbers are inactive results; ? = inconclusive; . = no result given; & = joins results of further samples. The order is random. About 6.3% of those tested had a hit in this group.

SMILES	HNF4A DNA FP	B2AR ag	Calb FLC	LANA-H2A inh	RanGTP-Impb inh	Vif TR-FRET	ALR H2O2 inh
CCOc1ccccc1N1C(=O)c2ccc(C(=O)O)cc2C1=O	1.9	8	-2	-10	2.5	-5%	-18
COc1cc(C2=NOC(C(=O)Nc3cc(C)on3)C2)cc(OC)c1OC (centres undefined)	0.8	-11	1	0.9	20*	?	2
COc1ccc(NC(=O)CCCC2=NS(=O)(=O)c3ccccc3N2)cc1	-1.2	2	1	-0.1	4.7	0%	-12
CCOC(=O)c1sc(N(C)C)nc1-c1ccccc1	3.0	-3	-2	-2.5	1.9	-5%	-2
O=C1CCCN1CCCNc1ncnc2sccc12	0.0	7	-7	1.4	-1.4	6%	-12
Cn1sc(NC(=O)c2ccc(Cl)cc2)nc1=O	5.9	5	33	1.9	-5.8	-4%	97*
CC1Oc2ccccc2N(CC(=O)NCc2ccc3c(c2)OCO3)C1=O (centres undefined)	3.7	-4	-5	-1.7	1.9	-5%	1
Cc1cc(C)c(C)c(OCc2nc(-c3cccnc3)no2)c1	-1.4	-4	5	-4.2	0.8	1%	7
Cc1cnc(NC(=O)C2CC=CCC2)s1 (centres undefined)	-1.8	-7	0	-0.8	2.1	.	0
Cc1ccc(-c2nn(-c3ccccc3)c3[nH]c(=O)c(CNCc4ccccc4)cc23)cc1	2.7	-12	7	1.1	0.7	28%	.
CCC(=O)c1ccc(N2CCCCCC2)c(F)c1	-1.9	-7	-27	-0.1	-4.1	1%	-4
CC(C)CN1C(=O)C(NC(=O)C2CC2)(C(F)(F)F)C2=C1CC(C)(C)CC2=O (centres undefined)	1.4	-3	-2	-0.3	-2.4	-2%	-4
Cc1cccc(NC(=S)Nc2ccccn2)c1C	-1.1	-12	-3	0.7	1.8	.	-2
O=C(COC(=O)c1cccc(S(=O)(=O)N2CCOCC2)c1)Nc1ccc2c(c1)OCO2	2.1	7	1	-1.4	2.2	6%	-26
COc1ccc(/C=N/Nc2nc(N3CCCCC3)nc(N3CCCCC3)n2)cc1[N+](=O)[O-]	-1.8	11	17	-0.6	2.0	-7%	3
CCCCCC(=O)Nc1ccccc1N1CCN(c2ccccc2)CC1	-0.6	20	2	-5.7	2.6	?	15
CN(C)c1ccc(CNc2ccc3c(c2)ncn3C(C)(C)C)cc1	-3.3	-3	3	8.1	0.0	.	93*
CN1CCN(C(=O)Nc2cccc(-c3ccccc3)c2)CC1	4.1	1	-5	-5.3	2.1	?	-6
COc1ccc(S(=O)(=O)NCC(c2ccc3c(c2)OCO3)N2CCOCC2)cc1 (centres undefined)	2.0	3	-6	3.0	-0.5	-3%	3
O=C(NCCNc1ccc([N+](=O)[O-])cc1C(F)(F)F)c1ccccc1	0.5	-4	21	.	0.0	12%	.
O=C(NCc1ccccc1)c1cnsn1	-5.3	-4	-13	-2.0	5.4	-5%	-2
CCN1CCN(c2nc3c(c(=O)n(C)c(=O)n3C)n2CCSc2nccc(C)n2)CC1	21	-8	-6	3.8	6.5	2%	-5
CCOC(=O)C1=C(O)/C(=C\c2cccc(OC)c2)N=C1C	0.2	-3	-11	11	-2.4	0%	3
CC1(c2ccc(Cl)cc2)NC(=O)N(CC(=O)Nc2ccc(N3CCCCC3)cc2)C1=O (centres undefined)	5.4	3	.	2.2	?	-5%	8
CCc1oc(C(=O)O)cc1COC	-3.0	5	15	0.0	0.0	7%	-14
CCCC(=O)c1c[nH]c(C(=O)N2CCOCC2)c1	-1.1	-1	-4	-2.4	4.0	4%	-6
COc1ccccc1Oc1ccc(S(=O)(=O)N2CCOCC2)cc1S(=O)(=O)N1CCOCC1	-1.4	2	4	-2.3	1.1	6%&1%	.
CC(C)C(=O)NNC(=O)c1cc2sccc2s1	0.7	-3	0	-16	2.0	.	-5
Nc1nc(N)nc(C2C=CCCC2)n1 (centres undefined)	-1.2	-3	.	.	.	13%	.
Cc1cccc(-c2nc(CN3CCCC(C(=O)NC4CCCCCC4)C3)c(C)o2)c1 (centres undefined)	2.6	4	-12	-3.6	-2.2	20%	-18
Cc1ccnc(Nc2nc(-c3ccc(F)cc3)cs2)c1	-0.2	10	-1	-2.2	3.7	4%	-11
C/C=C/c1ccc(OCCCCOc2ccccc2F)c(OC)c1	2.6	-7	-6	2.1	-0.3	6%	.
C=CCN(CC=C)Cc1c(O)ccc2c1oc(=O)c1ccccc12	-2.4	-7	25	2.4	6.1	.	26
COc1ccc(CNC(=S)NC2CCCC2)cc1	1.3	-5	-2	-2.5	2.7	.	-26
COc1ccc(S(=O)(=O)N2CCCCCC2)cc1C(=O)N(C)CCOc1ccccc1	0.2	7	2	-0.5	?	6%	-1
O=C(OCn1nnc2ccccc2c1=O)c1ccc2ncsc2c1	1.3	1	-4	-1.3	0.4	6%	-8

10 entries from above, ordered by number of heavy atoms, low to high.
SMILES	HNF4A DNA FP	B2AR ag	Calb FLC	LANA-H2A inh	RanGTP-Impb inh	Vif TR-FRET	ALR H2O2 inh
CCc1oc(C(=O)O)cc1COC	-3.0	5	15	0.0	0.0	7%	-14
Nc1nc(N)nc(C2C=CCCC2)n1 (centres undefined)	-1.2	-3	.	.	.	13%	.
CC(C)C(=O)NNC(=O)c1cc2sccc2s1	0.7	-3	0	-16	2.0	.	-5
COc1ccc(CNC(=S)NC2CCCC2)cc1	1.3	-5	-2	-2.5	2.7	.	-26
Cc1ccnc(Nc2nc(-c3ccc(F)cc3)cs2)c1	-0.2	10	-1	-2.2	3.7	4%	-11
CCOC(=O)C1=C(O)/C(=C\c2cccc(OC)c2)N=C1C	0.2	-3	-11	11	-2.4	0%	3
C/C=C/c1ccc(OCCCCOc2ccccc2F)c(OC)c1	2.6	-7	-6	2.1	-0.3	6%	.
Cc1cccc(-c2nc(CN3CCCC(C(=O)NC4CCCCCC4)C3)c(C)o2)c1 (centres undefined)	2.6	4	-12	-3.6	-2.2	20%	-18
COc1ccc(S(=O)(=O)N2CCCCCC2)cc1C(=O)N(C)CCOc1ccccc1	0.2	7	2	-0.5	?	6%	-1
COc1ccccc1Oc1ccc(S(=O)(=O)N2CCOCC2)cc1S(=O)(=O)N1CCOCC1	-1.4	2	4	-2.3	1.1	6%&1%	.

(continued)
SMILES	HNF4A DNA FP	B2AR ag	Calb FLC	LANA-H2A inh	RanGTP-Impb inh	Vif TR-FRET	ALR H2O2 inh
O=C(Cc1ccsc1)Nc1ccc(Cl)cc1Cl	4.6	1	-7	-6.4	-1.4	-2%	-8
CCOc1ccc(CCNC(=O)c2ccc(CS(=O)Cc3cccc(Cl)c3)o2)cc1 (centres undefined)	0.6	4	-2	-0.5	1.3	.	33
Cc1cc2oc(=O)cc(CN3CCCc4ccccc43)c2cc1C	7.6	-48	-6	-3.2	-9.1	13%	-4
O=C(CN1CCN(c2ccccn2)CC1)Nc1ccc(F)c(F)c1	-1.0	-4	1	-2.0	10	-4%	-2
O=C(CN(C(=O)CCC(=O)Nc1nccs1)c1ccc(F)c(Cl)c1)NCc1ccco1	3.3	0	-5	-7.5	3.1	30%&12%	-3
O=C1CC(C(=O)N(c2ccc(F)cc2)C(C(=O)NC2CCCC2)c2ccccn2)CS1 (centres undefined)	2.2	1	1	3.2	-11	8%&-18%	-4
COCCNC(=S)NN=C1CCCCC1	-3.5	0	26	-1.6	0.0	1%	-2
Cc1ccc(S(=O)(=O)NC(C)C(=O)OCC(=O)N(C)c2ccccc2)cc1 (centres undefined)	-0.6	-5	.	-1.9	.	3%	.
Brc1ccccc1-c1nc(-c2ccccc2)no1	.	.	0	-2.9	5.1	-1%	0
C=CCn1c(SCC(=O)OCC)nc(C(F)(F)F)cc1=O	4.1	19	-6	-0.2	?	-1%	2
COc1cc(S(=O)(=O)NCc2ccncc2)c(OC)cc1C	0.5	1	-3	8.4	-0.1	.	.
CC(C)(C)C(=O)NC1CC2CCCC(C1)N2C(=O)Nc1cccc(Cl)c1 (centres undefined)	0.5	6	-3	-4.3	1.2	.	-5

Some values from the entries so far.
O=C1CC(C(=O)N(c2ccc(F)cc2)C(C(=O)NC2CCCC2)c2ccccn2)CS1 (centres undefined) in Calb FLC is listed with 1
CC(C)(C)C(=O)NC1CC2CCCC(C1)N2C(=O)Nc1cccc(Cl)c1 (centres undefined) in LANA-H2A inh is listed with -4.3

Other compounds.
SMILES	HNF4A DNA FP	B2AR ag	Calb FLC	LANA-H2A inh	RanGTP-Impb inh	Vif TR-FRET	ALR H2O2 inh
COCCSc1nc2sc3c(c2c(=O)n1-c1ccccc1)CCN(C)C3	6.3	-12	8	3.6	7.3	11%	-15
CCN(CC)CCOc1ccc(C=NNc2nc3c([nH]2)c(=O)n(C)c(=O)n3C)cc1	3.4	0	.	.	.	-10%	.
O=C1CC(Nc2ccc(N3CCOCC3)cc2)C(=O)N1CCc1ccccc1 (centres undefined)	3.0	-4	-3	1.8	-0.2	?	25
CCCCn1c(N)c(N(CC)C(=O)C2CCCC2)c(=O)[nH]c1=O	0.1	14	.	1.7	.	-7%	0
COc1ccc2[nH]c3nc(SC(C)C)nnc3c2c1	1.7	0	7	2.3	-3.7	-3%	-5
CC(NC(=O)c1cc(S(=O)(=O)N(C)C)ccc1Cl)c1ccc(-n2ccnc2)cc1 (centres undefined)	-0.8	6	6	0.2	3.5	.	1
Cc1ccc(-n2nc(C(=O)O)c3ccccc3c2=O)cc1C	-0.1	-1	-8	1.3	2.9	69%	5
CCOC(=O)NC(NC(=S)Nc1ccc(OCC)cc1)C(Cl)(Cl)Cl (centres undefined)	-2.4	-3	6	.	-2.5	31%	.
CC(C)NC(=O)COC(=O)c1ccc(NS(=O)(=O)c2ccc3c(c2)OCCO3)cc1	5.1	-3	5	0.0	3.1	-4%	-1
Cn1cccc1C(=O)c1cccc([N+](=O)[O-])c1	-2.2	7	-16	-0.7	1.1	-6%	-6
Cc1ccc(C)c(N2CCN(C(=O)CCS(=O)(=O)c3ccc4c(c3)CCN4C(=O)C3CC3)CC2)c1	3.1	-1	-1	2.9	1.6	?	-7
Nc1nc(-c2ccc(Cl)cc2)c(N=Nc2ccc(S(=O)(=O)N3CCOCC3)cc2)s1	1.7	9	1	-1.3	-4.9	.	-5
CC(C)=CCC/C(C)=C/CNC(=O)C[C@H]1C[C@H](C(=O)N2CCOCC2)[C@@]2(CCC3CCCC3)c3[nH]c4cc(-c5ccco5)ccc4c3CCN2C1=O	15	-3	.	.	.	-3%	.
COc1ccccc1CNC(=O)CCN1C(=O)COc2ccc(C)cc21	0.3	0	6	2.8	-2.1	0%	-2
CC1(C)Cc2nc3oc4c(=O)n(CC(=O)Nc5ccc(Cl)cc5)cnc4c3cc2CO1	7.2	-7	-4	4.0	-3.8	.	.
CCOC(=O)CC1C(=O)NCCN1Cc1cccc(OC)c1 (centres undefined)	-3.1	1	-1	0.4	-1.1	7%	-14
COc1ccc(-n2nc(C(=O)NCC(=O)NCC3CCCO3)c3ccccc3c2=O)cc1Cl (centres undefined)	3.1	4	.	-0.3	.	1%	.
CCc1c(O)nc(SCC(=O)Nc2ccc3c(c2)CCC3)[nH]c1=O	5.0	-1	-6	-3.8	-2.5	-3%	100*
Fc1ccc(CNC(=S)NCc2ccccc2)cc1	-0.2	-7	0	-3.1	1.9	.	2
Cc1ccccc1OCCCC(=O)Nc1nccs1	-2.6	-1	-3	0.0	-2.1	-1%	94*
C=CCn1c(CSc2nc3ccccc3s2)nnc1SCC(=O)NCc1ccccc1	-2.2	-6	3	-3.5	3.3	1%	-3
COc1ccc(-c2csc(C)n2)cc1	3.7	4	-6	-2.6	0.1	2%	.
CN(C)N1C(=O)CC(N2CCCC2)C1=O (centres undefined)	-0.8	6	25	0.9	?	-15%	2
CCCn1c(=O)c2ccccc2n2c(SCC(=O)/C(C#N)=C(\C)N)nnc12	-2.8	-11	8	2.9	4.4	3%	2
CC(C)c1ccc(Nc2ncccc2C#N)cc1	1.0	-11	-12	-1.8	-2.1	0%	0
